# StopGo reporter: lowers the luciferase signal of an FMDV 2A StopGo reporter; 410,000 tested, 1.2% active; human cells with a luciferase reporter of 2A StopGo recoding; control for the full effect not named in the record; Potency, µM (series often up to 57.9 µM), for the others: top-dose signal change, negative = less light; active = well fitted falling curve with a large enough effect; inconclusive = small, poorly fitted or top-dose-only effect; inactive = no such curve, though single readings can be large or run the other way; tested in HEK293T cells; note: % is set by controls: 0 for no effect and ±100 for the full control effect; nearly all actives have a fitted effect of over 45% in size; luciferase light after 4 h
# NS1 function inh: influenza NS1 inhibition | S. cerevisiae slowed by influenza A NS1, growth recovery by OD600 | Potency, µM (highest dose often 46.1 µM), for inactives: top-dose activity, positive = more growth | 270,000 tested, 0.4% active | AID 2326; note: actives are rising curves; nearly all actives have a fitted effect of over 50% in size
#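 A cell-based growth assay was used: compounds that relieve NS1-induced slow growth of budding yeast raise OD600. Assay medium was yeast nitrogen base with ammonium sulphate and -URA supplement, pH 6.0, with 2% galactose.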
# Marburg entry inh: blocks Marburg virus binding to or entry into cells | Marburg virus pseudotyped entry inhibition, cell reporter; control for the full effect not named in the record; about a third of the inactives were read at about 46 µM | Potency, µM (series often up to 37.8 µM), inactives show at the highest dose activity change, negative = inhibition, most hits filed as inhibitors | 300,000 tested, 1.8% active | AID 540276; active = well fitted inhibition curve with a large enough effect; inconclusive = small, poorly fitted or top-dose-only effect, or effect the other way; inactive = flat fitted curve, though single readings scatter; tested in HEK293 cells; about a fifth of its hits are not listed in these tables; note: % is set by controls: 0 for no effect and ±100 for the full control effect; luciferase read-out
# Cruzain Triton: inhibitors of Trypanosoma cruzi cruzain with detergent | AID 1478 | Potency, µM, for the others: max response, negative = inhibition, hits mostly inhibitors | 200,000 tested, 0.43% active | purified cruzain, Z-FR-AMC fluorescence, 0.01% Triton; active = well fitted curve in the direction sought with a large enough effect; inconclusive = small, poorly fitted or top-dose-only effect, or another doubt; inactive = no such curve, though single readings can be large; an effect the other way counts as inactive or inconclusive;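 note: plate controls were neutral wells for no effect and buffer without enzyme for full effect; nearly all actives have a fitted effect of over 40% in size; top concentration of the series not given in the record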
# Target sequence (P25779 123-467 limits assumed): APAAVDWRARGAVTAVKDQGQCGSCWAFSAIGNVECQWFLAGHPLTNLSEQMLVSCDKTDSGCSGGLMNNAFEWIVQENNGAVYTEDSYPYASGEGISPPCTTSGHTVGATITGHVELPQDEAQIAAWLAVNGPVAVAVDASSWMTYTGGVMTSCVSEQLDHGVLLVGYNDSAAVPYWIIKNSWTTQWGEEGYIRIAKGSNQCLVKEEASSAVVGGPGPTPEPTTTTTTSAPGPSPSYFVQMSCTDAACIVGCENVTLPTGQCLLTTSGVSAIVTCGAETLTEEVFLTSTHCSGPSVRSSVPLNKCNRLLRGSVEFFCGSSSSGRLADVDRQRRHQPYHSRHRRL
#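 Cysteine protease activity tested under reducing, mildly acidic conditions (100 mM sodium acetate pH 5.5, 5 mM DTT) plus 0.01% Triton X-100. Cruzain 1.5 nM; substrate Z-FR-AMC 2 uM; 15 min compound preincubation at room temperature.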
# LASV entry inh: inhibitors of Lassa virus binding or cell entry. AID 540256. 300,000 tested, 1.2% active. Lassa virus pseudotype entry inhibition, cell reporter; control for the full effect not named in the record. Potency, µM (highest dose often 37.9 µM), for the others: top-dose activity change, negative = inhibition, usual class: inhibitors; active means well fitted inhibition curve with a large enough effect; inconclusive means small, poorly fitted or top-dose-only effect, or effect the other way; inactive means flat fitted curve, though single readings scatter; tested in HEK293 cells; note: % is set by controls: 0 for no effect and ±100 for the full control effect; nearly all actives have a fitted effect of over 50% in size; luciferase read-out
# RE007 growth inh: less growth of the S. pombe RE007 Vpr strain. S. pombe RE007 Vpr strain, BacTiter-Glo ATP luminescence, 24 h; control for the full effect not named in the record. Potency, µM (top dose mostly 92.2 µM), without a hit: top-dose activity change, negative = less growth. 360,000 tested, 0.21% active. AID 651644; active = well fitted falling curve with a large enough effect; inconclusive = small, poorly fitted or top-dose-only effect; inactive = no such curve, though single readings can be large or run the other way;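 note: % is set by controls: 0 for no effect and ±100 for the full control effect; nearly all actives have a fitted effect of over 50% in size; the assay follows cell death caused by Vpr and the record does not say whether a fall means rescue or toxicity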
#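 Fission yeast strain RE007, carrying one chromosomally integrated HIV-1 vpr copy, was seeded at OD 0.01 in PMG+AL medium with 23 nL pinned compound. After 24 h at 30 °C and 99% humidity, viability was read by BacTiter-Glo luminescence.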
# Cruzain noTriton: blocks cruzain activity in detergent-free assay. P25779. 200,000 tested, 2.3% active. Potency, µM, without a hit: max response, negative = inhibition, actives largely listed as inhibitors. purified cruzain, Z-FR-AMC fluorescence, no detergent. AID 1476; active = well fitted curve in the direction sought with a large enough effect; inconclusive = small, poorly fitted or top-dose-only effect, or another doubt; inactive = no such curve, though single readings can be large; an effect the other way counts as inactive or inconclusive;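 note: plate controls were enzyme without inhibitor for no effect and buffer without enzyme for full effect; nearly all actives have a fitted effect of over 40% in size; top concentration of the series not given in the record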
#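 Purified cruzain at 1.5 nM, pre-incubated 15 min with compound at room temperature in 100 mM sodium acetate pH 5.5, 5 mM DTT, 0.00005% Triton X-100. Reaction started with 2 uM Z-FR-AMC; AMC fluorescence increase over 60 s gives rate.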
# SARS PLP yeast: blocks SARS-CoV papain-like protease in a yeast assay. S. cerevisiae expressing SARS-CoV PLpro, growth rescue; control for the full effect not named in the record. Potency, µM (doses to about 32.9 µM), without a hit: at the highest dose activity, positive = growth rescue. 330,000 tested, 0.19% active. AID 485353; note: 0% is about no effect; nearly all actives have a fitted effect of over 55% in size; growth read by luminescence after 48 h
# Active calls of the source: *; ? = inconclusive; nt = no result given; & = joins results of further samples; [ ] = dose if it differs, or a comment. Unless noted, calls come from the whole dose curve; as a rule, active means well fitted rising curve with a large enough effect; inconclusive means small, poorly fitted or top-dose-only effect; inactive means no such curve, though single readings can be large or run the other way. Potency is the fitted concentration of half-maximal effect.
SMILES,StopGo reporter,NS1 function inh,Marburg entry inh,Cruzain Triton,LASV entry inh,RE007 growth inh,Cruzain noTriton,SARS PLP yeast
COc1cccc(CN(C)C(=O)C2CC(=O)N(c3ccc4c(c3)OCCO4)C2)c1 (stereo not drawn),4%,nt,1%,nt,-6%[46.1 µM],-21%,nt,-1%
COc1ccc(Cn2nnnc2C(c2ccccc2Cl)N2CCC(C(N)=O)CC2)cc1 (stereo not drawn),0%,-17%,-3%,1.2%,?,7%,?,-3%
COc1ccc(NC(=O)CCN2CCCCCC2)cc1,3%,1%,10%,-0.2%,9%,1%,-22%,-7%
COC(=O)c1ccc(NC(=O)Cc2ccccc2)cc1,57%[activator],-14%,?,4.7%,17%,13%,4%,-1%
Cc1ccc(-n2nc(C(=O)N3CCCCC3)c(=O)n(C)c2=O)cc1,5%,nt,nt,-1.5%,1%[46.1 µM],nt,-2%,nt
Cc1cc(C(=O)NCCCOC(C)C)c2ccccc2n1,-18%,8%,-9%,2.8%,12%,-3%,-1%,-1%
Cc1c(C)c2ccc(OCC(=O)N3CCC[C@@H]3C(=O)O)c(C)c2oc1=O,-1%,0%,nt,nt,nt,1%,nt,0%
O=C(OC(C(=O)NCc1cccs1)c1ccccc1F)c1ccco1 (stereo not drawn),17%,-3%,0%,-10%,-15%,-11%,-5%,3%
CCOc1ccc(C(=O)OC2CCN(C)CC2)cc1,29%,9%,?,0.7%,1%,7%,-15%,11%
O=C(c1ccc2nc[nH]c2c1)N1CCc2ccccc2C1,27%,nt,28%[46.1 µM],nt,-1%,9%,nt,6%
COc1ccc(CCNC(=O)[C@H](C)NC(=O)[C@@H]2CSC3c4ccccc4C(=O)N32)cc1 (stereo partly drawn),-6%,0%,nt,nt,nt,6%,nt,1%
Cc1cc2c(SCC(=O)Nc3cccc(O)c3)ncnc2s1,-3%,nt,-11%[46.1 µM],nt,-12%,-6%,nt,nt
COc1ccc(C(=O)C2CCCN(Cc3ccc4nonc4c3)C2)c(OC)c1 (stereo not drawn),-15%,-2%,?,nt,-22%[46.1 µM],5%,nt,0%
O=C(O)c1cccc(Nc2nc3ccccc3nc2NS(=O)(=O)c2cccs2)c1,5%,14%,nt,nt,nt,-15%,nt,-2%
CC(=O)N[C@H]1[C@H](Oc2ccc3c(c2)CCC2C3CC[C@]3(C)C(=O)CCC23)O[C@H](CO)[C@@H](O)[C@@H]1O (stereo partly drawn),-20%,2%,nt,nt,nt,4%,nt,1%
c1ccc(N2CCOCCOCCOCCOCC2)cc1,12%,1%,-1%[46.1 µM],nt,1%,-2%,nt,0%
CCCn1c(=O)c2ccccc2n2c(SCc3nc4ccccc4s3)nnc12,nt,-1%,4%,1.6%,16%,12%,13µM*,3%
COc1ccc(CCNC(=O)CNC(=O)Cn2ccc3ccccc3c2=O)cc1OC,7%,0%,12%[46.1 µM],nt,-9%,-3%,nt,1%
Cc1cccc(/C=C(\C(=O)C(=O)O)c2ccc3ccccc3n2)c1,70%[activator],nt,?,nt,-2%,-7%,nt,-3%
COc1ccccc1CNC(=O)C1CCN(C(=O)[C@@H]2Cc3ccccc3CN2)CC1,-12%,-7%,nt,nt,nt,12%,nt,-6%
CCCOc1ccc(-c2nnn(CC(=O)Nc3cccc(C(=O)OC)c3)n2)cc1,-26%,-14%,?,-0.4%,-24%,1%,-10%,3%
COc1cccc(N=Cc2c[nH][nH]c2=O)c1,9%,-60%,-21%[46.1 µM],0.3%,17%,12%,-1%,1%
COc1cc2c(cc1OC)/C(=C/C(=O)c1ccc(C)cc1)NCC2,-16%,0%,?,nt,-3%[46.1 µM],4%,nt,-2%
Cc1cccc(N2CCN(C(=O)C3CCCN(S(=O)(=O)c4ccc5c(c4)oc(=O)n5C)C3)CC2)c1C (stereo not drawn),11µM*,nt,?,-3.4%,?,nt,-9%,nt
CCc1cc2c(=O)n(-c3ccc(Br)cc3)cnc2s1,50%[activator],3%,1%[46.1 µM],1.6%,8%,-6%,-30%,-4%
CCOc1ccc(CNC(=O)CCC(=O)N2CCSc3ccccc32)cc1,-22%&-2%,-12%,nt,-0.4%,1%[46.1 µM],1%,2%,-1%
COc1ccc(C(=O)C(Cc2ccccc2)N(C)C)cc1 (stereo not drawn),38%[activator],0%,2%,-6.6%,14%,-3%,-7%,2%
Cc1ccc(NC(=O)CN(C)CC(=O)Nc2sc3c(c2C(N)=O)CCC3)cc1,-18%,-12%,-7%[46.1 µM],nt,?,-1%,nt,-2%
CC(C)Cc1ccc(CN2CCC(n3nccc3NC(=O)C3CCCC3)CC2)cc1,-22%,-4%,nt,nt,nt,11%,nt,-1%
Cc1c(C(=O)Nc2ccc(F)c(F)c2)oc2ccc(S(=O)(=O)N3CCC4(CC3)OCCO4)cc12,-23%,nt,nt,1.4%,11%[46.1 µM],nt,9%,nt
O=C(c1ccc2c(c1)OCO2)N1CCC2(CC1)Oc1ccc(Cl)cc1C(=O)C21CC(c2ccccc2)=NO1 (stereo not drawn),0%,9%,nt,nt,nt,-6%,nt,1%
COc1cccc(N2CCN(C(=O)C3CCN(S(=O)(=O)c4cccc5nonc45)CC3)CC2)c1,0%,nt,nt,-0.5%,-14%[46.1 µM],nt,?,nt
CCC(=O)c1ccc(OCC(=O)OCC(=O)N(CCC#N)c2ccc3c(c2)OCCO3)cc1,-17%,nt,0%[46.1 µM],nt,1%[46.1 µM],-4%,nt,-1%
Cc1ccc(NC(=O)CCC(=O)N/N=C/c2cccs2)cc1C,-25%,-17%,?,-2.7%,0%,-6%,-14%,9%
CSc1ccc(S(=O)(=O)Nc2ccc(NC(C)=O)cc2)cc1,-12%,5%,6%[46.1 µM],0.7%,-1%,7%,4%,-1%
CCOc1ccc(CCNC(=O)c2cc3c(=O)[nH]c4ccc(C)cc4c3s2)cc1OCC,0%,nt,?,-5.3%,10%[46.1 µM],nt,?,nt
CC(C)C(=O)NC(=O)COC(=O)/C=C/c1cccs1,6%,-3%,22%[46.1 µM],nt,12%,-25%,nt,-1%
O=C(CSc1ccc(Cl)cc1)Nc1cccc(-c2nnc(-c3ccco3)o2)c1,-17%,2%,?,-4.7%,0%,21%,-15%,-14%
CCOC(=O)Cc1nn(C)c(=O)c2ccccc12,nt,0%,-7%,1.0%,23%,-16%,4%,2%
CNC(=O)c1ccsc1NC(=O)CN1C(=O)CCC1=O,-10%,-1%,nt,nt,nt,4%,nt,-3%

# 4 structures out of the list, ordered by formula weight, low to high.
SMILES,StopGo reporter,NS1 function inh,Marburg entry inh,Cruzain Triton,LASV entry inh,RE007 growth inh,Cruzain noTriton,SARS PLP yeast
CC(C)C(=O)NC(=O)COC(=O)/C=C/c1cccs1,6%,-3%,22%[46.1 µM],nt,12%,-25%,nt,-1%
CNC(=O)c1ccsc1NC(=O)CN1C(=O)CCC1=O,-10%,-1%,nt,nt,nt,4%,nt,-3%
CCOc1ccc(CCNC(=O)c2cc3c(=O)[nH]c4ccc(C)cc4c3s2)cc1OCC,0%,nt,?,-5.3%,10%[46.1 µM],nt,?,nt
O=C(c1ccc2c(c1)OCO2)N1CCC2(CC1)Oc1ccc(Cl)cc1C(=O)C21CC(c2ccccc2)=NO1 (stereo not drawn),0%,9%,nt,nt,nt,-6%,nt,1%

# (next part)
Structure,StopGo reporter,NS1 function inh,Marburg entry inh,Cruzain Triton,LASV entry inh,RE007 growth inh,Cruzain noTriton,SARS PLP yeast
COc1cccc(C(=O)NCC(=O)NCc2cc(=O)n(C)c(=O)n2C)c1,0%,-10%,2%[46.1 µM],nt,-2%[46.1 µM],1%,nt,-1%
CCCC(=O)Nc1ccc(N2CCN(C(=O)c3cc4ccccc4o3)CC2)cc1,20%,-4%,10%[46.1 µM],nt,-27%,1%,nt,-3%
OC(c1ccc(F)cc1)C(c1ccccc1)N1CCOCC1 (stereo not drawn),0%,5%,9%,4.5%,17%,-1%,-2%,nt
O=C(NC(=O)c1ccccc1Cl)Nc1ccc(-c2cnco2)cc1,33%[activator],9%,nt,nt,nt,1%,nt,0%
Oc1ccc(-n2cccc2/C=N/n2cnnc2)cc1,-11%,8%,-5%[46.1 µM],nt,-2%[46.1 µM],7%,nt,1%
O=C(Nc1ccc2c(c1)OCCO2)C1CCN(C(=O)c2ccc([N+](=O)[O-])cc2)CC1,4%,?,nt,nt,nt,2%,nt,0%
Cc1cc(NC(=O)Nc2nnc(N3CCCCCC3)s2)ccc1Br,7%,nt,?,-2.6%,13%[46.1 µM],nt,-13%,nt
CCc1c(O)c(/C(C)=N\O)c(=O)n(-c2ccccc2)c1-c1ccccc1,-20%,7%,-2%,-3.4%,?,6%,?,19%
COc1ccc(NC(=O)c2c(NCc3cccs3)sc3c2CCC(C)C3)c(OC)c1 (stereo not drawn),53%[activator],nt,nt,-7.4%,10%[46.1 µM],nt,-9%,nt
CCc1ccc(N2C(=O)C3ON(c4ccccc4)C(c4ccco4)C3C2=O)cc1 (stereo not drawn),-24%,-44%,14%,0.5%,-1%,12%,7%,-5%

# From PubChem
